Imprint erasure: qHTS Assay for Compounds that Induce Erasure of Genomic Imprints; Potency, µM (doses to about 60.7 µM), for inactives: top-dose activity change, positive = activation, hits mostly activators; hit rate 0.02% among 110,000; mouse ES Peg3-LacZ reporter, beta-gal luminescence, 40 h; active means well fitted activation curve with a large enough effect;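 further: 0% = negative control wells on the plate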
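Gelatin-coated wells received 300 freshly trypsinized female ES cells with a Peg3LacZ-Neo reporter on the maternal allele, then incubated 40 hours at 37C. BetaGlo was added for 5 minutes at room temperature before a single luminescence read.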
The depositor's hits bear a star; & = joins results of further samples; [ ] = remark or other dose. Potency means the concentration at half of the fitted maximal effect.

Imprint erasure | SMILES
-5% | O=C(NCc1cccnc1)c1cc(-c2ccco2)on1
-9%&-8%&-5% | C[C@H](CS)C(=O)N1CCC[C@H]1C(=O)O
-4%[16.8 µM] | CCCC(=O)Nc1ccc(OC[C@@H](O)CNC(C)C)c(C(C)=O)c1
-6% | CO[C@@H]1[C@@H](OC(N)=O)[C@@H](O)[C@H](Oc2ccc3c(O)c(NC(=O)c4ccc(O)c(CC=C(C)C)c4)c(=O)oc3c2C)OC1(C)C
-11% | Cc1cc(NS(=O)(=O)c2ccc(N)cc2)no1
-11%[16.8 µM] | C[C@@H](C(=O)O)c1cccc(C(=O)c2ccccc2)c1
-10% | CC(C)(C)NC(=O)[C@@H]1C[C@@H]2CCCC[C@@H]2CN1C[C@@H](O)[C@H](Cc1ccccc1)NC(=O)[C@H](CC(N)=O)NC(=O)c1ccc2ccccc2n1
-14% | CN(C)CCCN1c2ccccc2CCc2ccccc21
-20% | O=C(O)c1cccnc1SCc1ccccc1
-7% | O=C(O)c1cn(C2CC2)c2cc(N3CCNCC3)c(F)cc2c1=O

Five of the entries above in order of the Imprint erasure value, rising:
Imprint erasure | SMILES
-14% | CN(C)CCCN1c2ccccc2CCc2ccccc21
-11% | Cc1cc(NS(=O)(=O)c2ccc(N)cc2)no1
-10% | CC(C)(C)NC(=O)[C@@H]1C[C@@H]2CCCC[C@@H]2CN1C[C@@H](O)[C@H](Cc1ccccc1)NC(=O)[C@H](CC(N)=O)NC(=O)c1ccc2ccccc2n1
-7% | O=C(O)c1cn(C2CC2)c2cc(N3CCNCC3)c(F)cc2c1=O
-6% | CO[C@@H]1[C@@H](OC(N)=O)[C@@H](O)[C@H](Oc2ccc3c(O)c(NC(=O)c4ccc(O)c(CC=C(C)C)c4)c(=O)oc3c2C)OC1(C)C

Some of the compounds tested; most or all hits stand in other tables.
